Screening results (PubChem)
Six1-Eya2 inh = qHTS Assay for Inhibitors of the Six1/Eya2 Interaction. Homeobox protein SIX1 (Homo sapiens) + Protein phosphatase EYA2 (Homo sapiens), …. AlphaScreen GST-Six1/His-Eya2 binding, biochemical; active compounds read low; control for the full effect not named in the record. AID 651725, 2012. activity change, % (concentration not given with the values). 360,000 tested, 0.56% active; in the data active = activity change below about -65%; inconclusive = about -30% to -65%; inactive = above about -30%; also: % is scaled to controls: 0 for no effect and ±100 for the full control effect
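AlphaScreen with GST-Six1 and His-Eya2 (5X mix: 250 nM and 500 nM), glutathione donor and nickel acceptor beads; buffer 50 mM Tris pH 8.0, 300 mM NaCl, 1 mM TCEP; 1 h at 37 C in the dark.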
D2 ag = Beta-Arrestin HTS for Positive Allosteric Modulators of the Human D2 Dopamine Receptor: Agonists. activation, % (no concentration beside the values). DiscoveRx PathHunter D2 beta-arrestin, luminescence, 90 min; 100% = 57 uM dopamine signal. D(2) dopamine receptor (Homo sapiens), P14416. AID 624465, 2012. 360,000 tested, 0.084% active; in the data active = activation above about 40%; inconclusive = about 15% to 40%; inactive = below about 15%; also: compound concentration not given in the record; the text of the record calls up to 30% inactive
Target sequence (P14416 whole entry, looked up): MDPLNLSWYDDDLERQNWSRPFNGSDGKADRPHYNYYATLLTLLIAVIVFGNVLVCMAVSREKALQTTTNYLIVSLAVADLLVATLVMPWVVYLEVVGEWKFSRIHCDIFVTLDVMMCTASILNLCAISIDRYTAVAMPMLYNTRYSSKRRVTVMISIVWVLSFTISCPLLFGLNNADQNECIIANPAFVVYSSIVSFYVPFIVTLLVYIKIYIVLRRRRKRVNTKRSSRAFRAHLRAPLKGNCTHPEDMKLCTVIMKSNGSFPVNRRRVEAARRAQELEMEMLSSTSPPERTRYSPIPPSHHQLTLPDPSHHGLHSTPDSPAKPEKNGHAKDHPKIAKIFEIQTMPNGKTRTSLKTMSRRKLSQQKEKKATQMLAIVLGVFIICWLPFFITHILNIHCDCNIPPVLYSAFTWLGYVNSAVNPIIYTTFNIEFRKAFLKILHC
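Agonist mode: compounds alone added to overnight-plated D2 PathHunter cells for 90 min at 37 C, with 57 uM final dopamine (EC100) defining full response. Beta-arrestin recruitment detected by chemiluminescent reagent, read after 1 h at ambient temperature.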
TRPML1 blocker = qHTS for Inhibitors of the Human Mucolipin Transient Receptor Potential 1 (TRPML1); Mucolipin-1 (Homo sapiens), Q9GZU1; TRPML1-inducible cells, Ca2+ dye fluorescence, FDSS; active compounds read low; inhibition of EC80 agonist-evoked calcium signal; activity change, negative = inhibition, % (no concentration beside the values); 390,000 tested, 0.02% active; in the data active means activity change below about -50%; inconclusive means about -30% to -50%; inactive means above about -30%;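 also: stimulus is agonist 54-4 at its EC80 concentration; % is scaled to controls: 0 for no effect and ±100 for the full control effect; compound concentration not given in the record; the text of the record puts the active cut at -80%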
Target sequence (Q9GZU1 whole entry, looked up): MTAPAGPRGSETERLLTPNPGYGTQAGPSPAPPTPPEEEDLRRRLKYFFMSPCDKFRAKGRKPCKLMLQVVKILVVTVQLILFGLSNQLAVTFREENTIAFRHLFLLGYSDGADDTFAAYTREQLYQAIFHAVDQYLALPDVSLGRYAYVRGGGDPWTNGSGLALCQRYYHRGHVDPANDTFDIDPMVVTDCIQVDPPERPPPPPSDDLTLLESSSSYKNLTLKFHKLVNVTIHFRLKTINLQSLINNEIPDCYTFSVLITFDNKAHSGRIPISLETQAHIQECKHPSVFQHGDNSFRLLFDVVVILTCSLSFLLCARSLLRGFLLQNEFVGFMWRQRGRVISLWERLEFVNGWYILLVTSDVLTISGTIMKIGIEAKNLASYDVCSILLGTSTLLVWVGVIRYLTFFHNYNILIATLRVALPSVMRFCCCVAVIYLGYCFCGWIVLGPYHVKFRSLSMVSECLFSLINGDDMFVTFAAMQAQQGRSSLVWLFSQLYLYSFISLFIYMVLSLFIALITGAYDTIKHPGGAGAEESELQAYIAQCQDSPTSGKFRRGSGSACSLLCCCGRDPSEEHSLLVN
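Calcium fluorescence in TRPML1-DL cells induced overnight with Tet: a 110 s read after compound pin addition, then a 110 s antagonist read after challenge with 54-4 at 4 uM final (EC80).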
PINK1 expr mod = A Quantitative High throughput Screen to Identify Chemical Modulators of PINK1 Expression | Potency, µM (top dose mostly 76.6 µM), for the others: top-dose activation (PINK1 increase), hits mostly activators | 410,000 tested, 0.2% active | PINK1 immunofluorescence, high-content cytometry, 24 h | AID 624263, 2012; active = well fitted activation curve with a large enough effect; inconclusive = small, poorly fitted or top-dose-only effect; inactive = flat fitted curve, though single readings scatter; cell line not stated here;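 also: potency is read from the fitted curve at half-maximal effect; % of control where 0% means no effect; nearly all actives have a fitted effect of over 65% in size; a mitochondrial uncoupler was the plate control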
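Stable cell line treated 24 h with compounds at 5 concentrations (CCCP controls), then fixed and immunostained for PINK1 plus nuclear and cell stains; PINK1 immunofluorescence quantified by laser-scanning microplate cytometry.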
TRPML1 agonist = qHTS for Agonists of the Human Mucolipin Transient Receptor Potential 1 (TRPML1) | activation, % (test concentration not listed) | TRPML1-expressing cells, Ca2+ dye fluorescence, FDSS; host cell line not named in the record; reference of the full effect not given here | 410,000 tested, 0.12% active; in the data active = activation above about 50%; inconclusive = about 30% to 50%; inactive = below about 30%; also: 0% is about no effect; the text of the record puts the active cut at 80%
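Tet-induced TRPML1-DL cells, 1,500 per well, cultured overnight, were loaded with a no-wash Ca2+ dye for 45–90 min. Calcium fluorescence was recorded on the FDSS for 110 s after compound addition, before the EC80 agonist (4 uM 54-4) was added.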
CtBP-E1A blk = qHTS Assay for Inhibitors of the CtBP/E1A Interaction; activity change, % (no concentration beside the values); 340,000 tested, 0.49% active; CtBP / adenovirus E1A interaction (AlphaScreen); AID 651724, 2012; AlphaScreen GST-E1A/His-CtBP binding, 1536-well; active compounds read low; control for the full effect not named in the record; in the data active means activity change below about -65%; inconclusive means about -30% to -65%; inactive means above about -30%; also: % is scaled to controls: 0 for no effect and ±100 for the full control effect
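Steps: dispense buffer (Tris pH 8.0, NaCl 300 mM, TCEP 1 mM, BSA, Tween 20); add 5X protein mix (GST-E1A, His-CtBP, 125 nM each); pin 23 nL compound; 2 h at 37 °C, dark; add 5X beads (50 ug/mL); 1 h; read.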
* marks the source's active call; other numbers are inactive results; ? = inconclusive; nt = no result given; & = joins results of further samples; [ ] = remark or other dose.

Values run as follows: Six1-Eya2 inh	D2 ag	TRPML1 blocker	PINK1 expr mod	TRPML1 agonist	CtBP-E1A blk
> COc1ccc(N=C2C(=Nc3ccc(OC)cc3)N(c3ccc(N(C)C)cc3)C(=S)N2c2ccc(OC)cc2)cc1
  -24.0	-2.3	16.6	?	-0.7	-21.2
> Cc1ccc(NC(=O)Cn2c(=O)n(CCC(=O)N3CCc4ccccc4C3)c(=O)c3ccccc32)cc1
  nt	nt	-13.4	1.1%	-0.6	nt
> COc1ccc(C)cc1NC(=O)C1CCN(S(=O)(=O)c2ccc3c(c2)CCCN3C(C)=O)CC1
  nt	nt	0.9	1.4%	0.9	nt
> CC1CCC(NC(=O)c2cc3ccccc3cc2O)CC1 (stereo not given)
  4.0	4.0	3.2	?	-0.3	12.4
> COc1ccc(C(=O)OCC(=O)NC2CC2)cc1F
  -8.4	-4.2	3.4	-1.0%	0.3	-24.2
> COCc1ccc(CN2CCC(N3CCC(C(=O)N4CCCC4)CC3)CC2)o1
  4.3	-4.9	17.0	-1.1%	0.0	9.6
> COc1ccc(-c2c3c(=O)n(C)c(=O)n(C)c3c3n2-c2ccccc2NC3c2ccc(O)cc2O)cc1 (stereo not given)
  nt	nt	21.1	-1.0%	0.4	nt
> O=C(CNC(=O)c1ccc(Cl)cc1)c1ccc(Cl)cc1
  -5.7	-3.2	12.9	3.6%	0.7	0.6
> CCn1c(SCc2nc3ccccc3[nH]2)nnc1-c1cccs1
  5.0	-1.5	-17.8	1.9%	0.3	2.6
> O=C(Nc1ccc2c(c1)CCC2)c1cccc(OC(F)F)c1
  0.4	-4.3	-10.2	3.5%	-0.3	nt
> O=C(c1ccco1)N1N=C(c2cccs2)CC1c1ccccc1O (stereo not given)
  -1.5	-6.9	7.6	-3.7%	-0.1	-0.9
> Cc1cc(N(CCO)CCO)ccc1C(c1ccc(N(CCO)CCO)cc1C)c1ccccc1Cl
  -30.0	-3.3	1.1	-5.1%	3.2	-21.9
> O=C(CSCc1ccccc1Cl)N/N=C/c1ccco1
  1.8	-6.0	2.9	0.4%	3.5	-2.1
> CC1(C)CC(=O)C(C=Nc2ccc(O)cc2)=C(O)C1
  -0.3	1.9	11.8	-1.5%[38.3 µM]	-0.3	13.0
> CCCCOc1ccc(C(=O)N2CC(=O)Nc3ccc(Br)cc3C2c2ccc(F)cc2)cc1 (stereo not given)
  nt	nt	-7.4	4.3%	1.1	nt
> CCS(=O)(=O)N1CCN(CC2CC3C=CC2C3)CC1 (stereo not given)
  4.2	0.4	0.0	1.0%	0.1	2.2
> CCOC(=O)C1=C(O)/C(=C/c2ccc(CNC(=O)C(=O)Nc3ccc(C)cc3)o2)N=C1C
  1.8	-1.5	-14.8	8.3%	1.7	5.2
> CC(C)(Oc1ccc(Cl)cc1)C(=O)OCC(=O)N1CCCC1
  3.2	-1.6	2.0	-2.5%	0.9	7.3
> CCn1c(SCC(=O)Nc2ccc3c(c2)OCCO3)nnc1-c1c[nH]c2ccccc12
  -8.4	-3.4	23.8	0.0%	0.4	-3.7
> CCOc1ccc(NC(=O)C2CCC(CNc3c(N4CCOCC4)c(=O)c3=O)CC2)cc1 (stereo not given)
  2.9	-3.0	-9.6	1.2%	-0.2	-5.4
> COC(=O)CSc1nc(NC(C)C)nc(N2CCOCC2)n1
  1.9	1.2	-13.0	-1.4%	-0.5	6.0
> CC(C)C(NC(=O)C1CCC(C(C)(C)C)CC1)C(=O)NCCc1ccc(S(N)(=O)=O)cc1 (stereo not given)
  -1.0	3.0	-20.9	6.4%	1.4	nt
> Cc1cccc(-n2nnc(C(=O)NCc3ccccc3)c2N)c1
  -4.3	-2.1	14.4	1.5%	-0.8	3.8
> Cc1ccc2c(c1)c1c(n2CC(O)CN2CCCCCC2)CCCC1 (stereo not given)
  -29.9	0.1	5.7	-1.8%	0.9	?
> Cc1cccc(C)c1NC(=O)c1sc(N)nc1-c1ccccc1
  -4.7	4.3	-10.7	2.0%	0.5	nt
> COc1ccc(CCC(=O)NCc2cn3ccc(C)cc3n2)cc1
  -0.3	-2.2	-3.0	0.8%	-0.8	-8.3
> CC1=CCC2C(=O)N(Cc3ccccc3)C(=O)C2C1 (stereo not given)
  -3.1	-3.2	-1.5	1.5%	-0.6	5.8
> O=C(COC(=O)C1CCN(c2ccc(C(F)(F)F)cn2)CC1)c1ccc(Cl)cc1
  30.7	-4.7	13.4	-0.7%	4.7	30.1
> COc1ccc(C2NC(=O)N(C)C3=C2C(=O)N(c2ccc(Br)cc2)C3)cc1 (stereo not given)
  nt	nt	26.2	-0.4%	-0.3	nt
> CCOC(=O)N1CCC(NC(=O)c2ccc(CS(=O)c3cccc(Cl)c3)o2)CC1 (stereo not given)
  -5.0	1.0	-5.2	-0.7%	0.2	9.3

2 entries from above, with tabs.
molecule	Six1-Eya2 inh	D2 ag	TRPML1 blocker	PINK1 expr mod	TRPML1 agonist	CtBP-E1A blk
CC1=CCC2C(=O)N(Cc3ccccc3)C(=O)C2C1 (stereo not given)	-3.1	-3.2	-1.5	1.5%	-0.6	5.8
O=C(COC(=O)C1CCN(c2ccc(C(F)(F)F)cn2)CC1)c1ccc(Cl)cc1	30.7	-4.7	13.4	-0.7%	4.7	30.1

Other structures.
Values run as follows: Six1-Eya2 inh	D2 ag	TRPML1 blocker	PINK1 expr mod	TRPML1 agonist	CtBP-E1A blk
> COCCNC(=O)CCSc1nc(-c2ccc(OC)cc2)cc(C(F)(F)F)n1
  -2.8	-5.4	-15.9&-3.4	1.0%&-0.7%	-1.2&-1.0	-1.2
> COc1ccc(OC)c2sc(Cl)nc12
  -1.9	2.2	17.4	2.0%	0.5	3.3
> O=C(Nc1sc2c(c1C(=O)NCc1ccco1)CCCC2)c1cc(=O)c2cc(Cl)ccc2o1
  nt	nt	-9.0	39.8µM*	1.8	nt
> Cc1ccccc1/C=N/Nc1ncnc2nc[nH]c12
  0.0	1.7	-2.8	1.0%	0.9	nt
> Cc1cnc(NC(=O)Cc2ccc(S(=O)(=O)N3CCOCC3)s2)s1
  -7.0	3.5	1.9	-2.3%	0.7	4.9
> Cc1cc2ncn(C(=O)c3c(-c4ccccc4Cl)noc3C)c2cc1C
  -0.4	-5.3	1.6	1.0%	-0.7	2.1
> CC(C)(C)c1ccc(C(=O)N2CCC(C(=O)NCC3CCCO3)CC2)cc1 (stereo not given)
  2.2	1.3	-6.9	-0.5%	-1.2	3.7
> Cc1cccc(-n2ccnc2SCC(=O)Nc2ccc3c(c2)OCCO3)c1
  -23.5	-4.7	-4.5	-0.4%	-0.5	-15.0
> Cc1ccc(C)c(Cn2nc(C)n3c(cc4cc(C)ccc43)c2=O)c1
  nt	nt	-3.8	0.8%	-0.3	nt
> Cc1cc([N+](=O)[O-])nn1CC(=O)NNC(=S)Nc1ccc(F)cc1
  9.4	-3.5	-4.4	-0.2%	0.0	1.9
> CCSc1cc(N2CCCC2)nc(-c2cccc(C)c2)n1
  45.0	-5.6	-3.6	?	1.3	-3.4
> COc1cccc(CNc2ncnc3onc(C)c23)c1
  nt	nt	16.7	0.2%	-0.4	nt
> O=C(/C(=N/O)n1cncn1)c1ccccc1Cl
  6.4	-0.9	22.3	-0.5%	-0.6	3.6
> CC(C)n1c(SCC(=O)c2ccc(F)cc2)nc2c(sc3ccccc32)c1=O
  nt	nt	-6.9	0.0%	-0.2	nt
> Cc1ccc(Nc2ncnc3ccccc23)cc1
  6.8	-5.2	21.1	-0.6%	2.1	-13.9
> COc1ccc(CCNc2nc(C)cc(=O)[nH]2)cc1OC
  3.0	4.9	-10.0	-2.9%[38.3 µM]	-0.3	7.1
> CCOc1ccc(S(=O)(=O)NCCOC)cc1C
  2.0	-0.3	3.7	5.6%[38.3 µM]	0.4	4.6
> CCCCCCNC(=O)N[C@@H](C(=O)NCCC[C@H]1CN2C(=NC[C@@H]2Cc2ccccc2)N1CCc1cccc(OC)c1)C(C)C
  -10.2	-4.0	11.7	3.1%	-0.3	-14.8
> O=C1CCCN1CCC1CCN(C2CC(=O)N(Cc3ccc(N4CCCC4=O)cc3)C2=O)CC1 (stereo not given)
  8.6	1.2	-2.9	-2.7%[38.3 µM]	-0.3	33.9
> COc1ccc(Cn2c(C3CC3)nc3ccc(NC(=O)c4ccco4)cc3c2=O)cc1
  -20.4	-0.5	0.3	2.8%	0.9	-19.2
> Cc1ccc(CCNS(=O)(=O)c2ccc(C)cc2)cc1
  3.5	1.2	-6.6	nt	1.1	-5.3
> O=C(C1=C[C@H](c2coc3ccccc3c2=O)C[C@H](OCc2ccc(CO)cc2)O1)N1CCN(Cc2ccccc2)CC1
  -8.8	2.1	-5.8	-1.0%	-0.7	-2.9
> CCCCn1c(N)c(N(CC)C(=O)C(c2ccccc2)c2ccccc2)c(=O)[nH]c1=O
  4.4	-1.6	-22.1	0.0%	3.6	-0.1
> COC(=O)c1nn(-c2ccc(Oc3ccccc3)cc2)c(=O)cc1O
  12.7	6.1	-19.1	1.4%	0.6	-7.3
> c1ccc(Cn2c(-c3ccccc3)nc3nc4ccccc4nc32)cc1
  3.2	-1.0	3.8	1.6%	3.9	-1.9
> COc1cc2sc(C)nc2cc1C
  5.7	-2.3	9.8	0.8%	0.8	14.6
> CC(c1nnc(SCC(=O)NC(=O)NCc2ccco2)n1-c1ccc(Cl)cc1)N(C)C (stereo not given)
  -4.2	-2.0	7.9	3.5%[38.3 µM]	-0.5	8.8
> COc1ccc(-c2cc3ncccc3cn2)cc1
  8.1	1.5	8.4	-1.3%	-0.4	4.0
> COC(=O)CC1=C(c2ccc([N+](=O)[O-])cc2)CCC1=O
  -8.4	-0.3	1.0	2.2%	-1.4	-9.4
